Screening results as filed in PubChem.
KCNQ2 pot: potentiators of rat KCNQ2 potassium channel. Potassium voltage-gated channel subfamily KQT member 2 (Rattus norvegicus), O88943. CHO-K1 KCNQ2, FluxOR thallium flux fluorescence; hits give high values. B-score at 10 µM. actives 0.54% (n = 310,000). AID 2239, 2010;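 active = fluorescence ratio B-score at least 3 SD of library B-scores, with initial fluorescence B-score within 3 SD, cut at about 5.3 in these data; same plate scores as AID 2156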;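 also: B-score of peak minus minimum over baseline fluorescence ratio after K+ and Tl+ stimulus; positive B-score means potentiation of KCNQ2 with more thallium influx and brighter signal; only the inactives scoring about 0 or higher are listed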
Target sequence (O88943 whole entry, looked up): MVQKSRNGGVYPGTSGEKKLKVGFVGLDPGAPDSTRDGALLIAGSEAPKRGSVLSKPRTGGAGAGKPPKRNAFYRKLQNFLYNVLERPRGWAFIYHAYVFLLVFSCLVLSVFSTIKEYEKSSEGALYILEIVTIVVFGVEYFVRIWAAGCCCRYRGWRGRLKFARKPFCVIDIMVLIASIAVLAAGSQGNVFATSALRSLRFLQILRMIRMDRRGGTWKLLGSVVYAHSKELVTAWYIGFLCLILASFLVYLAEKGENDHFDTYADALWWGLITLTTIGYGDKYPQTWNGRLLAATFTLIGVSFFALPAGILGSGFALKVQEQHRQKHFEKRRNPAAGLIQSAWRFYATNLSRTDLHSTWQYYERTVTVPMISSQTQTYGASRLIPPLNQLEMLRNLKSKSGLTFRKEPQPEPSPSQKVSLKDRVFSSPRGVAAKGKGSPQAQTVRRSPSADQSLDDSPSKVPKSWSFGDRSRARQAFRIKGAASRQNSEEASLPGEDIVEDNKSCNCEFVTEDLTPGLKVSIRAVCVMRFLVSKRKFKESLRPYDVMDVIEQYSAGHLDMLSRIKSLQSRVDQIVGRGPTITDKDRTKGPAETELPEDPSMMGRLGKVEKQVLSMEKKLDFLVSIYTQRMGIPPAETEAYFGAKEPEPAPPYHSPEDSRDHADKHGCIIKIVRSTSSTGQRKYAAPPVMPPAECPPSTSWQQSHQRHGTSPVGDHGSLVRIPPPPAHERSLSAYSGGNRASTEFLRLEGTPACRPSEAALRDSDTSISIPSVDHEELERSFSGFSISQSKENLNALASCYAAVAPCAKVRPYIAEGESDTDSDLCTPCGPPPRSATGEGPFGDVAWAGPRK
KCNQ2 pot baseline: further read-out of KCNQ2 pot, marked with its call; B-score; compound at 10 µM; measured here: initial fluorescence intensity artifact check;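 brightness before thallium and not channel activity; 0 = typical well and far values either way flag optical interference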
The depositor's hits bear a star. Some of the compounds tested, so the mix of outcomes need not match the whole.

compound	KCNQ2 pot	KCNQ2 pot baseline
CC1(C(=O)N(CC(=O)NC2CCCC2)C2CCCC2)CC(=O)N=C2C=CC=CN21 (stereo unspecified)	0.72	0.92
Oc1c(C(c2cccc(F)c2)N2CCN(Cc3ccccc3)CC2)sc2ncnn12 (stereo unspecified)	0.54	0.4
CCc1cc2c(=O)[nH]c(-c3ccccn3)nc2s1	10.9*	-0.7*
CN1CCc2c(sc(NC(=O)Cc3ccccc3)c2C(N)=O)C1	0.35	-0.23
Cc1ccc(-n2c(C)cc(C(=O)COc3c(CO)cc(F)cc3CO)c2C)cc1C	1.03	-0.48
COC(=O)c1nc2ccc(C)cn2c1F	1.04	-1.38
Cc1ccccc1-c1noc(N)c1C#N	0.45	0.03
Cc1ccccc1NC(=O)N1CCN(c2ncccn2)CC1	0.83	-0.01
COc1c(Cl)cnn(-c2ccc(Cl)c(Cl)c2)c1=O	1.46	-1.21
Cn1c(Cn2nnc3ccccc32)nnc1SCC(=O)c1ccc(F)cc1	0.66	0.71
CCC(C(=O)Nc1ccon1)c1ccccc1 (stereo unspecified)	1.1	0.19
CCN(CC1COc2ccccc2O1)C(=S)Nc1ccccc1 (stereo unspecified)	1.41	-1.21
NC(=O)c1c(NC(=O)CN2C(=O)CCC2=O)sc2c1CCCCC2	0.23	0.56
CCCN1CN(c2ccccc2)C(=S)N(c2ccccc2)C1	0.05	-0.42
COC(=O)CSc1nc2c(c(-c3ccc(C)o3)c1C#N)CCCC2	22.1*	2.38*
Cc1cccc(C(=O)NCCC(=O)Nc2nc(C)c(Cc3ccc4c(c3)OCO4)s2)c1	0.01	0.08
COC(=O)C1=C(C)N(C(C)C)C(=O)C1(NC(C)=O)C(F)(F)F (stereo unspecified)	2.33	0.01
COc1ccc(NS(=O)(=O)c2ccc3c(c2)N(C(C)=O)CCS3)cc1	0.05	0
Cc1ccc(-c2csc(Nc3ccccn3)n2)cc1	0.43	0.03
CCOc1ccccc1NS(=O)(=O)c1cc2c3c(c1)CC(=O)N3CCC2	0.45	2.71
O=C(Nc1nnc(C2CCCCC2)s1)C1CC(=O)N(c2ccccc2)C1 (stereo unspecified)	0.71	-0.77
COc1ccc(NC(=O)/C=C/c2ccccc2)cn1	0.29	0.58
COc1cccc(OCc2cc(C(=O)N3CCN(C(=O)c4ccco4)CC3)no2)c1	0.08	-1.76
O=C(CSc1nnc(NC(=O)C2CC2)s1)Nc1ccc2c(c1)OCCO2	0.89	0.05

3 entries already listed, arranged by their value in KCNQ2 pot, largest number first:
canonical_smiles	KCNQ2 pot	KCNQ2 pot baseline
COC(=O)c1nc2ccc(C)cn2c1F	1.04	-1.38
CC1(C(=O)N(CC(=O)NC2CCCC2)C2CCCC2)CC(=O)N=C2C=CC=CN21 (stereo unspecified)	0.72	0.92
Oc1c(C(c2cccc(F)c2)N2CCN(Cc3ccccc3)CC2)sc2ncnn12 (stereo unspecified)	0.54	0.4

(further entries)
compound	KCNQ2 pot	KCNQ2 pot baseline
COc1cc(C2CC(=O)Nc3c2c(=O)nc2c(C)cccn32)cc(OC)c1OC (stereo unspecified)	0.23	0.06
C=CCN1C(=O)c2cccc3c(Br)ccc(c23)C1=O	0.28	-0.56
Cc1ccc2cc(C#N)c(SCC(=O)N3CCCC3)nc2c1	1.16	1.57
CCOC(CNC(=O)C1CCN(S(=O)(=O)c2ccc3nc4c(c(C(=O)O)c3c2)CCCCC4)CC1)OCC	1.05	0.47
COc1ccccc1NS(=O)(=O)c1cccc(C(=O)OCC(=O)Nc2cc(C)on2)c1	0.97	-2.02
Cc1ccc(S(=O)(=O)N(C)C)cc1NC(=O)CCc1ccccc1	0.03	-0.18
O=C(NNc1cc(Cl)cc(Cl)c1)C1CCC1	1.2	0.37
CC1(C)C=Cc2cc3ccc(=O)oc3cc2O1	1.83	-1.36
C=CCn1c(SCCN2C(=O)c3ccccc3C2=O)nc2scc(-c3ccccc3)c2c1=O	0.63	-1.75
O=C(N/N=C/c1ccc2ncccc2c1)c1cc(-c2cccs2)nc2ccccc12	1.79	0.49
Cc1ccc(NC(=S)NC2CCCC2)cc1C	0.51	-1.05
COc1ccc(/C=N/NC(=O)C(=O)N2CCN(c3ccccc3OC)CC2)cc1	0.39	-0.55
CS(=O)(=O)N1N=C(c2ccccc2)CC1c1ccc2nccnc2c1 (stereo unspecified)	2.72	-4.47
CCOC(=O)c1csc(NC(=O)C2=COCCO2)n1	1.65	-0.5
COc1ccc(CN=C(Nc2ccccc2)SC2CC(=O)NC2=O)cc1 (stereo unspecified)	2.14	-0.02
O=C(Nc1ccccc1Cl)c1cc[n+]([O-])cc1	1.04	0.03
COCCN1C(=O)N[C@@H](CCc2ccccc2)[C@H](C(C)=O)[C@H]1C	1.36	-0.45
CC(C)N(C(=O)c1sc2cc([N+](=O)[O-])ccc2c1Cl)C(C)C	0.01	0.12
Cc1cc(CNC(=O)Nc2ccc3c(c2)OCO3)nn1C	0.5	-0.37
Cn1c(SCC(=O)OC2CCCCC2)nnc1-c1ccc(S(=O)(=O)N2CCCC2)cc1	0.04	0.84
CCN1CCN(C(=O)c2cc3cc(F)ccc3[nH]2)CC1	0.03	0.08
COc1ccccc1N1CCN(S(=O)(=O)c2ccc(-n3cnnn3)cc2)CC1	1.12	-1.53
CCCCNC(=O)C1(c2ccc(OC)cc2)CCOCC1	1	0.01
CCCCN(CCCC)CCNC(=O)CN1C(=O)CSc2ccc(S(=O)(=O)N3CCOCC3)cc21	0.2	0.09
O=C(C1=C[C@@H](c2ccccc2)C[C@@H](OCCCCO)O1)N1CCOCC1	1.28	0.83
Clc1cccc(Cl)c1OCCOCCNCc1ccccc1	0.97	-0.82
O/N=C\c1ccc(-c2ccccc2)o1	0.45	-0.36
O=C(Nc1ccc(S(=O)(=O)Nc2nccs2)cc1)c1cc(-c2ccccn2)nc2ccccc12	0.06	-0.11
COc1ccccc1-c1ccc2nnc(SC)n2n1	0.34	0.49
NC1=NC(c2ccccc2)N=C(Nc2ccccc2)N1 (stereo unspecified)	1.48	1.03
CCN(Cc1cc2ccccc2[nH]c1=O)S(=O)(=O)c1ccccc1	0.66	-0.38
O=C(Nc1ccccc1)c1cccnc1N1CCOCC1	2.26	-1.17
O=[N+]([O-])c1cc([N+](=O)[O-])c2oc(-c3ccccc3)c(Br)c2c1O	4.48	-0.54
COc1cccc(/C=C/C(=O)Nc2ccc(N3CCOCC3)cc2)c1OC	1.56	-0.59
CCOc1ccc(NC(=O)CCNS(=O)(=O)c2cccc3nonc23)cc1	0.76	-0.17
O=C(Nc1ccncc1)C1CCN(S(=O)(=O)c2ccccc2C(F)(F)F)CC1	0.84	-0.96

6 entries from above in another layout.
Order of results – KCNQ2 pot | KCNQ2 pot baseline
Clc1cccc(Cl)c1OCCOCCNCc1ccccc1
  0.97 | -0.82
O/N=C\c1ccc(-c2ccccc2)o1
  0.45 | -0.36
O=C(Nc1ccc(S(=O)(=O)Nc2nccs2)cc1)c1cc(-c2ccccn2)nc2ccccc12
  0.06 | -0.11
COc1ccccc1-c1ccc2nnc(SC)n2n1
  0.34 | 0.49
NC1=NC(c2ccccc2)N=C(Nc2ccccc2)N1 (stereo unspecified)
  1.48 | 1.03
CCN(Cc1cc2ccccc2[nH]c1=O)S(=O)(=O)c1ccccc1
  0.66 | -0.38

(list continues)
compound | KCNQ2 pot | KCNQ2 pot baseline
COc1ccc(-c2nc(CN3CCN(Cc4ccccc4)CC3)c(C)o2)cc1 | 1.17 | -0.9
CCOc1ccc(N(CC(=O)Nc2ccc(C)cc2)S(=O)(=O)c2c(C)[nH]c(=O)[nH]c2=O)cc1 | 1.48 | 1.68
CC(C(=O)NC1C(=O)N2C(C(=O)O)=C(CSc3nnnn3C)CSC12)n1cc(Cl)cn1 (stereo unspecified) | 0.28 | 1.59
CC(C)c1nnc(NC(=O)CCC(=O)NCc2ccccc2Cl)s1 | 0.52 | 0.06
CCOc1nc(C#N)nc(N2CCCCC2)n1 | 0.8 | -1.61
CC(=O)NCCc1csc(-c2ccccc2)n1 | 2.67 | -0.04
Cc1ccc(C)n1-c1ccc(C(=O)N/N=C/c2ccncc2)cc1 | 1.14 | -1.14
CCOC(=O)N1CCN(C(=O)c2csc3c2CCCCC3)CC1 | 0.14 | 1.33
CC(C)N(C(=O)Cc1ccccc1[N+](=O)[O-])C(C)C | 1.73 | 2.68
Cc1cc(NC(=O)CSc2n[nH]c(-c3cccs3)n2)no1 | 0.69 | 0.66
COCc1nc2sc3c(c2c(=O)[nH]1)CCCC3 | 2.18 | -0.95
COCCNC(=O)Cn1ncc2ccsc2c1=O | 0.36 | 0
CCC(c1n[nH]c(=S)n1-c1ccccc1)N(C)C (stereo unspecified) | 2.36 | -0.33
CCOc1ccc(S(=O)(=O)N2CCC(C(=O)NCc3ccncc3)CC2)cc1 | 0.13 | 0.69
CCCCc1nnc(NC(=O)CSc2nc(C)cc(=O)[nH]2)s1 | 0.81 | 0.89
Cc1[nH]n(-c2ccc([N+](=O)[O-])cc2)c(=O)c1/C=N/N1CCOCC1 | 0.83 | -0.79
O=C(CSc1nnc(-c2ccc(Cl)cc2)n1Cc1ccco1)Nc1ccc2c(c1)OCCO2 | 0.48 | 0.98
CCNC(=S)N1CCN(Cc2ccc3c(c2)OCO3)CC1 | 2.32 | -2.42
CN(NC(=O)C(C)(C)C)c1nc(-c2ccccc2)nnc1C(F)(F)F | 2.94 | 0.29
CCOC(=O)c1c(NC(C)=O)sc2c(OC)c(Br)ccc12 | 0.4 | 0.6
CCOc1ccc(C2C(C#N)=C(N)Oc3cc(C)n(CCN(C)C)c(=O)c32)cc1OCC (stereo unspecified) | 0.41 | 1.06
Cc1cc(NC(=O)CN2CCN(c3cccc(Cl)c3)CC2)no1 | 0.49 | 1.1
Nc1nc(N2CCN(c3ccc(F)cc3)CC2)n[nH]1 | 0.34 | -1.75
COc1ccc(/C=N/n2c(-c3cc(C)[nH]n3)n[nH]c2=S)cc1OC | 0.22 | -0.9
COc1ccc(C(=O)NC2CC2)cc1OC1CCN(Cc2ccc(SC)cc2)CC1 | 0.07 | 0.74
CC1CCN(S(=O)(=O)c2cc(Br)cc(C(=O)NC3=NCCS3)c2)CC1 | 0.13 | 1.13
CCOc1ccc2nc(NC(=O)CC3Oc4ccccc4NC3=O)sc2c1 (stereo unspecified) | 1.61 | 0.78
COC(=O)c1sccc1Oc1c(Cl)cccc1[N+](=O)[O-] | 2.18 | -0.3
Cc1ccc(S(=O)(=O)N/N=C2/CCCCC2C2CCCCC2)cc1[N+](=O)[O-] (stereo unspecified) | 0.41 | 0.26
COc1ccccc1NC(=O)Nc1ccc(C)cn1 | 0.8 | 0.93
Fc1ccc(C2=CSC3=NCCN23)cc1 | 0.06 | 0.89
O=C(CCNC(=O)c1ccccc1Cl)NC1=NCCS1 | 1.18 | -0.89
C[C@@H](O)c1nc2ccccc2n1N | 0.08 | -2.77
CN(CC(=O)NCCN1CCN(Cc2ccccc2)CC1)S(=O)(=O)c1cccc2nsnc12 | 0.68 | -1.59
Cc1nc(CCNC(=O)Cc2ccc(Cl)cc2)cs1 | 0.65 | -0.04
CC(C)Oc1ccc(C(CC(=O)O)Cc2ccccc2)cc1 (stereo unspecified) | 0.07 | -1.77
CN1C(=O)C2(C(C#N)=C(N)N(c3cc(Cl)cc(Cl)c3)C3=C2C(=O)CCC3)c2ccccc21 (stereo unspecified) | 0.09 | 2.18
O=c1c(-c2ccccc2)nnc2sc(COc3ccc(Br)cc3)nn12 | 0.16 | 1.63
NS(=O)(=O)OCCCc1ccc(C(F)(F)F)cc1 | 1.16 | -0.81
CNc1nc2c(c(=O)n(C)c(=O)n2C)n1CCCc1ccccc1 | 1.28 | -0.26
CC1CC(C)CN(S(=O)(=O)c2ccc(C(=O)NCCCn3ccnc3)cc2)C1 (stereo unspecified) | 0.01 | 0.69
CN1CCC(N(C)CC(=O)Nc2cccc(Oc3ccccc3)c2)CC1 | 0.12 | -1.49
CN(C)C(CNc1ncnc2sc3c(c12)CCCCC3)c1ccco1 (stereo unspecified) | 1.69 | 5.3
CCC(COC)NC(=O)CCc1nnc(Cc2cccc(C(F)(F)F)c2)o1 (stereo unspecified) | 0.32 | 0
COC(=O)C1Cc2c([nH]c3ccccc23)C(C(C)C)N1 (stereo unspecified) | 1.31 | -0.89
Cc1cc(C(=O)N(C)CC(=O)Nc2ccccc2C(F)(F)F)c(C)o1 | 0.3 | 0.02
CCN1C(=O)[C@@H]2[C@@H](c3ccc(-c4ccc(C(C)=O)cc4)c(OC)c3)N3CCCC[C@@]3(C(=O)OC)[C@@H]2C1=O | 0.06 | -0.18
Cc1ccc(-c2c[n+]3c(n2-c2ccccc2)CCC3)cc1 | 0.52 | 0.52
CC1CCc2nc3sc4c(c3c(N)c2C1)CCCC4 (stereo unspecified) | 1.33 | -0.43
COc1cccc(CCc2nc3ccccc3c(=O)n2N)c1 | 0.82 | -0.06
CCn1cc(C(=O)N2CCN(c3ccccn3)CC2)c(=O)c2cc(S(=O)(=O)N3CCC(C)CC3)ccc21 | 0.09 | 0.85
CC[n+]1c(/C=C/c2cc([N+](=O)[O-])ccc2O)ccc2ccccc21 | 2.24 | -0.37
CC(=O)c1ccc(NC(=S)N2CCCC(C(F)(F)F)C2)cc1 (stereo unspecified) | 0.35 | 0.8
O=C(COc1ccc2oc(-c3ccccc3)cc(=O)c2c1)Nc1ccccc1 | 1.58 | 0.09
COC(=O)CCC(=O)Nc1ccc2oc3c(c2c1)CCCC3 | 0.32 | -1.14
CC1CCN(c2nc(-c3ccccc3)c(C#N)c(=O)[nH]2)CC1 | 1.3 | -0.18
CCN(c1ccccc1)S(=O)(=O)c1ccc(C(=O)N2CCCC(C(F)(F)F)C2)cc1 (stereo unspecified) | 1.78 | -0.62
CN(C)S(=O)(=O)c1ccc(NC(=O)CCCNC(=O)c2ccc(Cl)cc2)cc1 | 0.44 | -0.87
Cc1ccc(C)n1-c1nccc(-c2cccs2)n1 | 0.69 | -1.12
